# Source: PubChem (Broad Institute)
# NOMO-1 viab = STK33 inhibitor candidate reducing NOMO-1 cell viability; 37,000 tested, 7.5% active; inhibition, % (concentration not given with the values); NOMO-1 AML viability, CellTiter-Glo luminescence, 72 h; AID 2330;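 active = most replicates above 80%; inconclusive = exactly half above 80%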;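 also: wells of about 30 µL received 25 nL stock; 0% = median of vehicle wells and 100% = reference inhibitor level; the first replicate is given; inactives centre near 10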
# Numbers without * were called inactive; u = inconclusive. Not all compounds are listed; count on the stated rates, not on these rows.
entry	structure	NOMO-1 viab
1	CCN(CC)CCOc1ccc2nc(N(C)C)sc2c1	16
2	Cc1noc(C)c1NC(=O)Nc1cccc2c1O[C@@H](CN(C)C(=O)NC(C)C)[C@@H](C)CN([C@H](C)CO)C2=O	1
3	C[C@@H]1CN([C@@H](C)CO)C(=O)Cc2cc(NS(=O)(=O)c3ccc(F)cc3)ccc2O[C@@H]1CN(C)CC1CC1	9
4	C[C@H](CO)N1C[C@H](C)[C@H](CN(C)S(=O)(=O)c2ccc(Cl)cc2)Oc2c(NS(=O)(=O)c3ccccc3)cccc2C1=O	21
5	COc1ccc(CN(C)C[C@H]2Oc3ccc(NS(=O)(=O)c4ccccc4)cc3C(=O)N([C@@H](C)CO)C[C@H]2C)cc1	-15
6	C[C@@H]1CCCCO[C@H](CN(C)C(=O)Nc2ccccc2)[C@@H](C)CN([C@H](C)CO)C(=O)c2cc(NC(=O)Nc3ccc4c(c3)OCO4)ccc2O1	4
7	Cc1cc(C)c(C)c(Oc2coc3cc(OCC(=O)Nc4ccccc4F)ccc3c2=O)c1	13
8	C[C@H](CO)N1C[C@H](C)[C@@H](CN(C)Cc2ccncc2)Oc2c(NC(=O)Nc3ccc(F)cc3)cccc2C1=O	31
9	C[C@H]1CN([C@@H](C)CO)C(=O)c2cccc(NC(=O)Nc3cccc4ccccc34)c2O[C@H]1CN(C)Cc1ccc(C(F)(F)F)cc1	53
10	C=CCN1C(=S)N[C@@H]2CS(=O)(=O)C[C@@H]21	-5
11	Clc1ccc(CSc2nnc(-c3ccco3)n2Cc2ccco2)c(Cl)c1	31
12	C[C@H]1CN([C@@H](C)CO)C(=O)Cc2cc(NC(=O)C3CC3)ccc2O[C@@H]1CN(C)S(=O)(=O)c1ccc(F)cc1	32
13	Cc1ccc(S(=O)(=O)Nc2ccc3c(c2)C(=O)N([C@@H](C)CO)C[C@H](C)[C@H](CN(C)Cc2ccncc2)O3)cc1	41
14	CC1=C(Cc2ccc(OC(=O)c3ccccc3)cc2)C(=O)C(C(C)C)CC1 (stereo unspecified)	30
15	CCCc1cc(=O)[nH]c(SCC(=O)Nc2ccc(C)cc2C)n1	0
16	CC(C)(C)c1ccc(C(=O)N2CCCC2)cc1	9
17	CNC[C@H]1OCCCC[C@@H](C)Oc2ccc(NC(=O)NC3CCCCC3)cc2C(=O)N([C@H](C)CO)C[C@@H]1C	-9
18	CC(C)(C)OC(=O)N[C@@H](Cc1ccccc1)c1n[nH]c(=S)o1	-3
19	CC(C)NC(=O)Nc1ccc2c(c1)C(=O)N([C@H](C)CO)C[C@H](C)[C@@H](CN(C)CC1CCCCC1)OCCCC[C@@H](C)O2	24
20	COc1ccccc1NC(=O)C(C)N1c2cccc3cccc(c23)S1(=O)=O (stereo unspecified)	6
21	CC1(CCO[C@H]2O[C@H](CO)[C@@H](O)[C@H](O)[C@H]2O)CCC2C(=CCC3[C@]2(C)CCC[C@@]3(C)C(=O)O)C1 (stereo partly specified)	21
22	C/C(=N\N)c1c(-c2ccccc2)c2cc(Br)ccc2[nH]c1=O	31
23	CCOC(=O)CSc1nnc2c3ccccc3n(C)c2n1	49
24	C[C@H](CO)N1C[C@H](C)[C@@H](CN(C)C(=O)Nc2ccc(F)cc2)Oc2ccc(NC(=O)NC3CCCCC3)cc2C1=O	-15
25	CN(C)S(=O)(=O)N(CC(=O)O)c1ccccc1	25
26	CCc1c(C)nc(SCC(=O)Nc2ccc(OC)cc2)[nH]c1=O	14
27	C[C@H]1CN([C@@H](C)CO)C(=O)c2cccc(NC(=O)c3cnccn3)c2O[C@H]1CN(C)Cc1ccc2c(c1)OCO2	12
28	C[C@@H]1CN([C@@H](C)CO)C(=O)Cc2cc(N(C)C)ccc2O[C@@H]1CN(C)Cc1ccc(Oc2ccccc2)cc1	106*
29	C[C@@H]1CN([C@@H](C)CO)C(=O)c2cc(NC(=O)CCCCCC(=O)Nc3ccccc3N)ccc2O[C@@H]1CN(C)CC1CCCCC1	u
30	COc1ccc(NC(=O)Nc2ccc3c(c2)CC(=O)N([C@@H](C)CO)C[C@@H](C)[C@@H](CN(C)C(=O)Nc2ccc(OC)cc2)O3)cc1	4
31	COc1ccc(NC(=O)Nc2ccc3c(c2)CC(=O)N([C@H](C)CO)C[C@@H](C)[C@@H](CN(C)Cc2ccc(-c4ccccc4)cc2)O3)cc1	112*
32	Cc1ccc(C(=O)CC(C(=O)O)n2ccc(C)n2)cc1 (stereo unspecified)	-3
33	Cc1ccc(N(CC(=O)Nc2ccccc2-c2ccccc2)S(C)(=O)=O)cc1C	50
34	Cc1oc2c(c1C(=O)NCc1ccccc1)C(=O)c1ccccc1C2=O	140*
35	N#Cc1c(-c2ccco2)nc(SCC(=O)Nc2ccc(I)cc2)[nH]c1=O	10
36	C[C@H]1CN([C@@H](C)CO)C(=O)Cc2cc(NC(=O)Nc3ccc(C(F)(F)F)cc3)ccc2O[C@@H]1CN(C)Cc1ccncc1	20
37	Cc1noc(C)c1NC(=O)N(C)C[C@@H]1Oc2ccc(NS(=O)(=O)c3ccc(Cl)cc3)cc2CC(=O)N([C@@H](C)CO)C[C@@H]1C	9
38	Cc1cc(C)nc(SCC(=O)Nc2ccc(C(=O)O)cc2)n1	13
39	CC(=O)O[C@@H]1[C@@H](OC(C)=O)[C@H](C)O[C@@H](O[C@H]2[C@@H]3C=CO[C@@H](O[C@@H]4O[C@H](CO)[C@@H](O)[C@H](O)[C@H]4O)[C@@H]3[C@@]3(CO)O[C@@H]23)[C@@H]1OC(=O)/C=C/c1ccccc1	10
40	Cc1cc2c(c(=O)n1CCN1CCOCC1)C(c1cccc(F)c1)C(C#N)=C(N)O2 (stereo unspecified)	-1
41	C=C(C(=O)O)C1CCC2(C)CCC(O)C2(C(C)=O)C1 (stereo unspecified)	-1
42	COc1c(OC2OC(CO)C(O)C(O)C2O)ccc(O)c1C(=O)OCc1ccccc1O[C@@H]1O[C@H](CO)[C@@H](O)[C@H](O)[C@H]1O (stereo partly specified)	-1
43	CCCN(C)C[C@@H]1OCCCC[C@@H](C)Oc2ccc(NS(=O)(=O)c3ccc(C)cc3)cc2C(=O)N([C@H](C)CO)C[C@@H]1C	21
44	N#Cc1cnc2c(-c3ccccc3)c(COc3ccccc3)nn2c1N	-12
45	O=C(CSc1ncnc2scc(-c3ccc(Cl)cc3)c12)Nc1nsc(-c2ccccc2)n1	-6
46	NS(=O)(=O)c1ccc(NC(=S)NCCc2c[nH]c3ccccc23)cc1	-17
47	COc1ccc(Cl)cc1NC(=O)COc1ccc([N+](=O)[O-])cc1	9
48	C[C@@H]1CN([C@@H](C)CO)C(=O)c2cc(NC(=O)c3ccncc3)ccc2O[C@H]1CN(C)Cc1ccc2c(c1)OCO2	12
49	OCCn1c(SCCOc2ccccc2)nc2ccccc21	30
50	COc1ccc(NC(=O)N(C)C[C@H]2Oc3ccc(NC(=O)CCCCCC(=O)Nc4ccccc4N)cc3CC(=O)N([C@H](C)CO)C[C@H]2C)cc1	18
51	Cc1ccc(S(=O)(=O)N(C)C[C@H]2Oc3ccc(NC(=O)Nc4c(C)noc4C)cc3C(=O)N([C@@H](C)CO)C[C@H]2C)cc1	-14
52	Cc1noc(C)c1S(=O)(=O)Nc1cccc2c1O[C@@H](CN(C)Cc1ccc(C(=O)O)cc1)[C@@H](C)CN([C@@H](C)CO)C2=O	25
53	Cc1cc(Nc2ccc(F)cc2)nc(SCc2c(Cl)cccc2Cl)n1	52
54	Cc1ccc(S(=O)(=O)N(C)C[C@@H]2Oc3ccc(NC(=O)CCN4CCOCC4)cc3C(=O)N([C@H](C)CO)C[C@H]2C)cc1	1
55	COc1cc(NS(=O)(=O)c2ccc(NC(=O)c3ccc(Cl)cc3Cl)cc2)ncn1	-14
56	Cc1ccccc1NC(=O)COc1ccc(-c2nc3sc4c(c3c(=O)[nH]2)CCCC4)cc1	51
57	COc1ccc(CN(C)C[C@@H]2Oc3ccc(NC(=O)Nc4ccc5c(c4)OCO5)cc3C(=O)N([C@H](C)CO)C[C@@H]2C)cc1	23
58	CC(C)NC(=O)Nc1ccc2c(c1)C(=O)N([C@H](C)CO)C[C@@H](C)[C@H](CN(C)Cc1ccc(Oc3ccccc3)cc1)O2	27
59	COc1cc(NC(=O)COc2ccc(Cl)cc2Cl)c2ncccc2c1	49
60	CCOC(=O)Nc1ccc2c(c1)N(C(=O)CN1CCOCC1)c1ccccc1CC2	-20

# Other compounds.
entry	structure	NOMO-1 viab
61	C[C@@H]1CN([C@H](C)CO)C(=O)c2cccc(NC(=O)Nc3cccc4ccccc34)c2O[C@@H]1CN(C)S(=O)(=O)c1ccc(F)cc1	42
62	COc1ccc(S(=O)(=O)Nc2ccc3c(c2)C(=O)N([C@H](C)CO)C[C@H](C)[C@H](CN(C)Cc2ccc(C(F)(F)F)cc2)OCCCC[C@@H](C)O3)cc1	105*
63	CC(=O)c1cccc(NC(=O)Cn2nc(C)c([N+](=O)[O-])c2C)c1	9
64	COc1ccc(CCNC(=O)c2nc(SC)ncc2Cl)cc1OC	-10
65	CNC(=O)CSc1c(-c2cccs2)[nH]c2ccccc12	17
66	COc1cc(Cl)c(C(F)(F)F)cc1NC(=O)c1c(OC)cccc1OC	43
67	C[C@@H]1CN([C@H](C)CO)C(=O)Cc2cc(NC(=O)Nc3ccc4c(c3)OCO4)ccc2O[C@H]1CN(C)Cc1ccc(Cl)c(Cl)c1	57
68	CNC[C@H]1Oc2c(NS(=O)(=O)c3cn(C)cn3)cccc2C(=O)N([C@H](C)CO)C[C@@H]1C	7
69	CCOC(=O)C1CCCCN1Cc1cccc([N+](=O)[O-])c1 (stereo unspecified)	-22
70	NS(=O)(=O)c1ccc(CCNC(=O)c2cccnc2)cc1	-2
71	C[C@@H]1CCCCO[C@H](CN(C)S(=O)(=O)c2ccc(F)cc2)[C@@H](C)CN([C@H](C)CO)C(=O)c2cc(NC(=O)Cc3ccccc3)ccc2O1	23
72	CC(C)=CCc1c(O)cc(O)c2c(=O)cc(-c3ccc(O)cc3)oc12	94*
73	CC1CCc2c(sc3ncnc(SCC(=O)NC4CCCCC4)c23)C1 (stereo unspecified)	16
74	O=C(NCCCn1ccnc1)c1cc(-c2ccc(Br)cc2)nc2ccccc12	17
75	CSc1nc(CSc2ccc(Cl)cc2)nc(C2CC2)c1C#N	43

# 3 entries from above, arranged by length of the SMILES, lowest first.
entry	structure	NOMO-1 viab
70	NS(=O)(=O)c1ccc(CCNC(=O)c2cccnc2)cc1	-2
69	CCOC(=O)C1CCCCN1Cc1cccc([N+](=O)[O-])c1 (stereo unspecified)	-22
73	CC1CCc2c(sc3ncnc(SCC(=O)NC4CCCCC4)c23)C1 (stereo unspecified)	16

# Next part:
entry	structure	NOMO-1 viab
76	COc1ccc(OC)c(S(=O)(=O)N(C)CC(=O)N2CCN(c3ccc(F)cc3)CC2)c1	-16
77	NC(=O)N/N=C/c1ccc([N+](=O)[O-])o1	50
78	Cc1ccc(S(=O)(=O)N(C)C[C@@H]2Oc3ccc(NS(=O)(=O)c4ccccc4)cc3CC(=O)N([C@H](C)CO)C[C@H]2C)cc1	-17
79	COc1ccc(NC(=O)Nc2ccc3c(c2)C(=O)N([C@@H](C)CO)C[C@@H](C)[C@H](CN(C)Cc2ccccc2)O3)cc1	6
80	C[C@H](CO)N1C[C@H](C)[C@H](CN(C)Cc2ccncc2)Oc2c(NC(=O)C3CCCCC3)cccc2C1=O	-2
81	C[C@@H]1CCCCO[C@@H](CN(C)S(=O)(=O)c2cn(C)cn2)[C@@H](C)CN([C@H](C)CO)C(=O)c2cc(NC(=O)CCC(F)(F)F)ccc2O1	4
82	CC(C)NC(=O)Nc1ccc2c(c1)CC(=O)N([C@H](C)CO)C[C@H](C)[C@H](CN(C)Cc1ccc(C(=O)Nc3ccccc3N)cc1)O2	126*
83	COc1ccc(C)cc1S(=O)(=O)NCc1ccccn1	-13
84	O=C(O)C1C2C=CC(O2)C1C(=O)Nc1ccc(Oc2ccc(Cl)cc2)cc1 (stereo unspecified)	25
85	C[C@@H]1Cc2c(O)c(O)cc(O)c2C(=O)O1	22
86	C[C@H](CO)N1C[C@H](C)[C@@H](CN(C)Cc2ccc(Oc3ccccc3)cc2)Oc2c(NC(=O)c3nc4ccccc4s3)cccc2C1=O	87*
87	CC(=O)Nc1ccc(S(=O)(=O)Nc2ccc([N+](=O)[O-])cc2)cc1	33
88	CCOC(=O)c1c(-c2ccccc2)csc1NC(=O)Cn1cnc2ccccc2c1=O	-17
89	C[C@@H]1CN([C@H](C)CO)C(=O)c2cccc(NC(=O)Nc3ccc(C(F)(F)F)cc3)c2O[C@H]1CN(C)Cc1ccc(C(F)(F)F)cc1	u
90	COc1ccc(NC(=O)Nc2ccc3c(c2)C(=O)N([C@H](C)CO)C[C@H](C)[C@@H](CN(C)C(=O)NC(C)C)O3)cc1	8

# 6 entries drawn at random from the list so far:
entry	structure	NOMO-1 viab
86	C[C@H](CO)N1C[C@H](C)[C@@H](CN(C)Cc2ccc(Oc3ccccc3)cc2)Oc2c(NC(=O)c3nc4ccccc4s3)cccc2C1=O	87*
76	COc1ccc(OC)c(S(=O)(=O)N(C)CC(=O)N2CCN(c3ccc(F)cc3)CC2)c1	-16
80	C[C@H](CO)N1C[C@H](C)[C@H](CN(C)Cc2ccncc2)Oc2c(NC(=O)C3CCCCC3)cccc2C1=O	-2
84	O=C(O)C1C2C=CC(O2)C1C(=O)Nc1ccc(Oc2ccc(Cl)cc2)cc1 (stereo unspecified)	25
83	COc1ccc(C)cc1S(=O)(=O)NCc1ccccn1	-13
78	Cc1ccc(S(=O)(=O)N(C)C[C@@H]2Oc3ccc(NS(=O)(=O)c4ccccc4)cc3CC(=O)N([C@H](C)CO)C[C@H]2C)cc1	-17

# New compounds follow.
entry	structure	NOMO-1 viab
91	Cc1cccc(NC(=O)C2CN(S(=O)(=O)c3ccccc3)CCN2S(=O)(=O)c2ccccc2)c1 (stereo unspecified)	6
92	COc1ccc(S(=O)(=O)N(C)C[C@H]2Oc3ccc(NC(=O)Nc4ccc(F)cc4)cc3CC(=O)N([C@H](C)CO)C[C@H]2C)cc1	19
93	c1ccc(-n2c(SCc3nc4ccccc4s3)nnc2-c2ccncc2)cc1	38
94	CCN1/C(=C2\C(=O)N(C)C(=S)N2c2ccccc2)C=Cc2ccccc21	12
95	C[C@H](CO)N1C[C@H](C)[C@@H](CN(C)C(=O)NC2CCCCC2)Oc2ccc(NC(=O)CCN3CCOCC3)cc2C1=O	11
